Bioassay records from PubChem BioAssay.
Vaccinia mCherry = inhibitors of vaccinia virus infection (mCherry reporter signal) | Vaccinia virus mCherry reporter infection, fluorescence; about a quarter of the inactives have no number | Potency, µM (titrated, usually from 36.5 µM), for inactives: top-dose activity change, negative = inhibition, usual class: inhibitors | 310,000 compounds, 0.63% hits | AID 720579; active = well fitted inhibition curve with a large enough effect; inconclusive = small, poorly fitted or top-dose-only effect; inactive = no such curve, though single readings can be large or run the other way; tested in A549 cells; further: nearly all actives have a fitted effect of over 35% in size; inactives centre near -10
VACV Venus inh = inhibitors of vaccinia virus (Venus reporter). Vaccinia virus Venus reporter expression, fluorescence. Potency, µM (titrated, usually from 36.5 µM), for inactives: at the highest dose activity change, negative = inhibition, usual class: inhibitors. 330,000 compounds, 0.46% hits. AID 720580; active means well fitted inhibition curve with a large enough effect; inconclusive means small, poorly fitted or top-dose-only effect; inactive means no such curve, though single readings can be large or run the other way; tested in A549 cells; further: nearly all actives have a fitted effect of over 30% in size; inactives centre near -10
An asterisk follows results filed as active; i = inactive; ? = inconclusive; . = not tested or not shown. On the % scale 0 is the no-effect control and ±100 the full control effect; potency means the concentration at half of the fitted maximal effect.

SMILES | Vaccinia mCherry | VACV Venus inh
Cc1nn(CC(=O)N2CCCCC2)c(=O)c2cc3occc3n12 | -11% | -9%
O=C(NCC(c1ccco1)N1CCOCC1)c1ccc(F)c(F)c1 (stereo not given) | -14% | 1%
COc1ccc(N2CC(NS(=O)(=O)c3ccc4ccccc4c3)CC2=O)cc1 (stereo not given) | -16% | -16%
CCn1c(SCC(=O)Nc2nc(C)cs2)nnc1C(C)NC(=O)c1ccccc1 (stereo not given) | -14% | ?
Cc1cc(C)c(S(=O)(=O)Nc2ccc(O)c(Sc3ncn[nH]3)c2)c(C)c1 | i | -12%
C/C(N)=C(/C#N)C(=O)COC(=O)C(NS(=O)(=O)c1ccc(Cl)cc1)C(C)O (stereo not given) | -16% | -9%
Nc1ccc(-c2ccc(C(=O)O)s2)cn1 | i | -2%
Cc1cccc(-c2nc3c(cnn3-c3ccccc3)c(=O)n2-c2ccc(Br)cc2)c1 | -14% | -12%
Cc1ccc(N2CC(C(=O)N3CCCc4ccccc43)CC2=O)cc1 (stereo not given) | i | -11%
CC(=O)c1c(C)[nH]c(C(=O)OCC(=O)NCCC(C)C)c1C | -11% | -12%
CCOC(=O)C1CCN(S(=O)(=O)c2ccc3c4c2CC(=O)N4CC(C)S3)CC1 (stereo not given) | ? | -17%
O=C(c1ccccc1)c1c[nH]c(C(=O)C(Cl)(Cl)Cl)c1 | ? | -14%
COc1ccc(Cl)cc1S(=O)(=O)N1CCCC1 | i | -15%
Cc1cccc(C(=O)Nc2ccc(C(=O)c3ccccc3)cc2)c1 | i | -17%
Cc1ccc(S(=O)(=O)NN2C(=O)c3ccccc3NC2(C)C)cc1 | -17% | -9%
CCCC1=[N+](CC(=O)c2ccccc2)CCn2cccc21 | -16% | -2%
Cc1cc(N2C(=O)C(O)=C(C(=O)c3cccs3)C2c2cccc(O)c2)no1 (stereo not given) | . | -5%
NS(=O)(=O)c1ccc(N=Nc2cc3ccccc3c(C(=O)O)c2O)cc1 | -10% | 6%
CSc1ccccc1NC(=O)CN(C)C(=O)CCc1c[nH]c2ccccc12 | ? | -12%
COc1cccc(C(O)c2nc(-c3cc4ccccc4o3)cs2)c1 (stereo not given) | i | -11%
CC(=O)CSc1nnc(NC(=O)CCc2ccccc2)s1 | -16% | -9%
Cc1[nH]n(-c2ccccc2)c(=O)c1C(C[N+](=O)[O-])c1ccc(F)cc1 (stereo not given) | i | -6%
CC1(C)Cc2cccc(OCC(=O)O)c2O1 | -10% | -5%
C=CCC[C@@H](Cc1ccc(F)cc1)C(=O)OC[C@@H](C)NC(=O)[C@@H](CC=C)CC(=O)N[C@H](CO)Cc1ccccc1 | ? | ?
CCOC(=O)CSc1n[nH]c(=S)s1 | i | -3%

Further structures.
SMILES | Vaccinia mCherry | VACV Venus inh
COc1ccc(CNC(=O)c2cccc(-c3ccc(C)c4ccccc34)n2)cc1 | -24% | -26%
COC(=O)c1cc(OC)c(OC)cc1N | . | -29%
COc1ccc(C2C(C(C)=O)=C(O)C(=O)N2CCc2c[nH]c3ccccc23)cc1OC (stereo not given) | -9% | 3%
COc1ccc2c(c1)[C@H]1[C@H](CO2)[C@H](c2ccccc2)[C@]2(C)C(=O)Nc3cc(OC)c(OC)cc3C(=O)N12 | ? | ?
Cc1cc(/C=C2\SC(=Nc3ccc(F)cc3)NC2=O)c(C)n1-c1ccc(S(N)(=O)=O)cc1 | . | ?
CN(CC(=O)Nc1ccc(N2CCOCC2)cc1)CC(=O)Nc1cccc(C#N)c1 | -17% | -12%
COc1ccc(C)cc1S(=O)(=O)N1CCCC(C(=O)NC2CC2)C1 (stereo not given) | -3% | -16%
Nc1nc(Nc2cccc(Cl)c2)sc1C(=O)c1ccc(F)cc1 | ? | ?
CCOC(=O)c1oc2ccccc2c1N | -23% | -20%
CN(C)CCNC(=O)c1[nH]c(C(F)(F)F)nc1-c1ccccc1 | 1% | 0%
COc1ccc(C(=O)Sc2ccc(Cl)cc2)cc1OC | . | -13%
CCOc1cccc(-c2nnc3sc(-c4cc(OC)c(OC)c(OC)c4)nn23)c1 | -14% | -4%
O=C(N/C(=C\c1ccc(Br)cc1)C(=O)N1CCOCC1)c1ccco1 | -18% | -8%
CC(C)(C)c1ccc(C(=O)NC(Cc2c[nH]c3ccccc23)C(=O)OCC(=O)c2ccc(Br)cc2)cc1 (stereo not given) | -24% | -10%
CCn1c(SCC(=O)Nc2ccc(Cl)cc2)nc2nc3c(cc2c1=O)CCCC3 | 18% | -16%
O=C(c1ccc(OC2CCN(C/C=C/c3ccc(F)cc3)CC2)cc1)N1CCCCC1 | -19% | -30%
CN(C(=O)c1ccc(-c2nn(C)c(=O)c3ccccc23)cc1)C1CCCCC1 | -26% | -27%
O=C(O)c1ccc(S(=O)(=O)N2CCCCCCC2)cc1 | i | -11%
CCCCOc1ccc(C2OC34CCCCC3C(C#N)(C#N)C2(C#N)C(=N)O4)cc1 (stereo not given) | -2% | 25%
CCC(C)Sc1ccc([C@@H]2[C@@H]3C(=O)N(CC)C(=O)[C@@H]3[C@]3(C(=O)OC)CCCCN23)cc1OC (stereo not given in full) | i | -22%
O=C(COc1ccc(Br)cc1Br)NC(=S)Nc1cccc(CO)c1 | -6% | -18%
COc1ccc(Cl)cc1S(=O)(=O)N1CCC(C(=O)NCCC2=CCCCC2)CC1 | -12% | -25%
COc1ccc(OC)c(NP2(=O)OCC(C)([N+](=O)[O-])CO2)c1 (stereo not given) | i | -4%
Cc1ccc(CNC(=O)C2CCCN2S(=O)(=O)c2ccc3c(c2)C(C)(C)C(=O)N3C)cc1 (stereo not given) | -10% | -8%
O=c1oc2ccccc2cc1-c1cn(-c2ccccc2)c(=S)[nH]1 | ? | -12%

Next section.
SMILES | Vaccinia mCherry | VACV Venus inh
CCn1ncc(/C=N\NC(=O)COc2ccccc2)c1C | -23% | -6%
O=C(Nc1ccc(Cl)c(S(=O)(=O)N2CCCCC2)c1)c1ccncc1 | -27% | -25%
CS(=O)(=O)N1CCCCC1c1cc(C(=O)Nc2cccc3c2CCCC3)no1 (stereo not given) | i | -11%
O=C(NCCc1ccccc1)c1ccc2c(c1)N(Cc1ccccc1Cl)C(=O)c1ccccc1S2 | -7% | -8%
O=C(O)C1CCC(N2C(=O)c3cccc([N+](=O)[O-])c3C2=O)CC1 (stereo not given) | -9% | -2%
N#Cc1nc(Cc2cccc3ccccc23)oc1NCc1ccc2c(c1)OCO2 | . | -26%
O=C(Nc1ccccc1Cl)C1(c2ccccc2)CC1(Cl)Cl (stereo not given) | i | -6%
COc1ccccc1NS(=O)(=O)c1ccc2oc(=O)ccc2c1 | -7% | -10%
O=C(Cn1c(=O)oc2cc(S(=O)(=O)N3CCCC3)ccc21)NCc1ccc(Cl)cc1 | -20% | -10%
Cc1ccc(CSc2nnc(-c3ccccn3)n2Cc2cccs2)cc1 | 6% | -20%
CC1=C(C(=O)Nc2cc(C(=O)NCc3ccccc3)ccc2C)SCCO1 | -12% | -17%
CC(C)(C)C(=O)Nc1nnc(SCC(=O)NC2CCCC2)s1 | 10% | 0%
CN1C(=O)[C@H]2[C@@H](C3CC3)N3C(=O)CN(Cc4ccc(-c5ccccc5)cc4)C(=O)[C@@]3(C)[C@H]2C1=O | 6% | -12%
C/C(=N\NC(=S)NC1CCCCC1)c1ccc(C)o1 | -21% | -5%
Cc1ccn2cc(-c3ccc(NS(=O)(=O)c4ccccc4)cc3)nc2c1 | -25% | -23%
O=C(COC(=O)c1cc(-c2ccc(Cl)s2)nc2ccccc12)NCc1ccco1 | . | -18%
CCCNc1nc2c(c(=O)[nH]c(=O)n2C)n1CCc1ccccc1 | ? | -11%
Nn1c(SCC(=O)Nc2ccc3c(c2)OCO3)nnc1C1CC1 | -13% | -5%
CC(C)CN(C(=O)CN(C)S(=O)(=O)c1ccc(Cl)cc1)C1CCS(=O)(=O)C1 (stereo not given) | -2% | -16%
COc1ccccc1N1CCN(C(=O)CCN2C(=O)c3cccc4cccc(c34)C2=O)CC1 | -5% | 3%
COC(=O)CCC(C)C1CCC2C3CCC4CC(O)CCC4(C)C3=CC(=O)C12C (stereo not given) | -23% | -20%
CC1CCCCC12NC(=O)N(CC(=O)Nc1cccnc1Cl)C2=O (stereo not given) | 0% | -3%
COC(C[C@@H]1O[C@@H]1[C@@H](O)COCc1ccccc1)OC | i | -11%
Cn1ccc2c(N3CCCCCC3)cc3c(c21)C1CCC3C1 (stereo not given) | -18% | -28%
O=c1[nH]c(COc2ccc(Br)cc2Cl)nc2ccccc12 | i | -9%

Next results.
SMILES | Vaccinia mCherry | VACV Venus inh
CC(=O)c1cc2c(ccc3ccccc32)oc1=O | i | -5%
O=C(NCC1CCCO1)C1CCCN1C(=O)Nc1ccc(Cl)c(Cl)c1 (stereo not given) | i | -7%
CCOCCCNC(=O)c1c(-c2ccccc2)noc1C | -6% | -5%
CC(C)c1ccc(/C=N/NC(=O)c2cccc(S(=O)(=O)N3CCOCC3)c2)cc1 | -6% | -12%
Cc1ccc(S(=O)(=O)N2CCC(C(=O)Nc3cccnc3)CC2)cc1 | 15% | -10%
OC(c1ccc(Cl)cc1)c1ncc(-c2ccccc2Cl)[nH]1 (stereo not given) | i | -10%
O=C(CC1N=C2c3ccccc3N=C(SCc3ccccc3F)N2C1=O)NCc1cccs1 (stereo not given) | -16% | -15%
CCCCCN1CC(O)=C(c2nc(-c3ccc(Cl)cc3)cs2)C1=N | i | -3%
CCC(C(=O)NCCc1ccc(OC)cc1OC)n1nc(C)n2c(cc3occc32)c1=O (stereo not given) | -1% | -17%
Cc1ccc2oc3c(c(=O)c2c1)C(c1cccc(Cl)c1)N(CCCN1CCOCC1)C3=O (stereo not given) | i | -23%
Cc1ccccc1NC(=O)c1ccc(F)c(S(=O)(=O)N2CCc3ccccc3C2)c1 | -12% | -15%
CSc1ccccc1NC(=O)CN1CCCCC1 | -13% | -8%
COc1cc(/C=c2/sc3nc(-c4ccccc4)c(-c4ccccc4)n3c2=O)cc(OC)c1OC | -11% | -14%
COc1ccccc1NC(CC(=O)c1ccccc1)C(=O)OCC(=O)c1ccc(Br)cc1 (stereo not given) | -10% | -6%
O=C(NCC(c1ccco1)S(=O)(=O)c1cccs1)c1ccc(F)c(F)c1 (stereo not given) | -14% | -2%
CCN(CC(=O)NCc1ccc(F)cc1)CC(O)COCc1cccc(OC)c1 (stereo not given) | -13% | -10%
Cc1ccc(/C(O)=C/C(=O)C(=O)NNC(=O)C(O)(c2ccccc2)c2ccccc2)cc1 | i | -9%
Cc1nc(CN2CCC(c3ccccc3)CC2)cc(=O)[nH]1 | -3% | -1%
CSc1nccc(Oc2cncc(Cl)c2)n1 | i | 6%
COC(=O)[C@@]12C[C@@H](CC(=O)NCCC(C)C)C(=O)N(Cc3cccc4ccccc34)C1=CCC(C)(C)C2 | -10% | ?
COc1cc(/C=C/C(=O)NC2CCCCC2)cc(OC)c1OC | -9% | -3%
O=C(CNC(=O)c1ccc(Br)cc1)NC1=NCCS1 | -9% | -3%
CC(Oc1cccc(Cl)c1)C(=O)Nc1ccc(N2CCOCC2)cc1N1CCOCC1 (stereo not given) | -26% | -1%
O=C(O)/C=C\C(=O)Nc1ccc(OCc2ccccc2)cc1 | i | -17%
Cc1ccccc1CN1C(=O)c2ccccc2Sc2ccc(C(=O)NCCc3ccccc3)cc21 | -13% | -9%

More results:
SMILES | Vaccinia mCherry | VACV Venus inh
COc1cc(NC(=O)c2cc3ccccc3o2)c(OC)cc1Br | . | 15%
CC(C)C(c1nnnn1Cc1cccs1)N1CCN(c2ccccc2)CC1 (stereo not given) | -4% | 4%
O=C(Nc1ccc2c(c1)OCCO2)C(c1ccccc1F)n1c(=O)c(-c2cc3ccccc3[nH]2)nc2ccccc21 (stereo not given) | ? | -26%
O=C(NCc1cccnc1)c1cc(S(=O)(=O)N2CCOCC2)c(Cl)cc1Cl | i | -6%
Cc1ccc(S(=O)(=O)N2CCCc3ccccc32)cc1C | -22% | -9%
CC(C)n1c(=O)[nH][nH]c1=S | i | -7%
Cn1nc(C(=O)Nc2ccc(S(=O)(=O)N3CCCCC3)cc2)ccc1=O | -30% | -18%

Shown with two lines to a compound: part of the list above.
Every second line gives: Vaccinia mCherry | VACV Venus inh
- O=C(NCC(c1ccco1)S(=O)(=O)c1cccs1)c1ccc(F)c(F)c1 (stereo not given)
  -14% | -2%
- CCN(CC(=O)NCc1ccc(F)cc1)CC(O)COCc1cccc(OC)c1 (stereo not given)
  -13% | -10%
- Cc1ccc(/C(O)=C/C(=O)C(=O)NNC(=O)C(O)(c2ccccc2)c2ccccc2)cc1
  i | -9%
- Cc1nc(CN2CCC(c3ccccc3)CC2)cc(=O)[nH]1
  -3% | -1%
- CSc1nccc(Oc2cncc(Cl)c2)n1
  i | 6%
- COC(=O)[C@@]12C[C@@H](CC(=O)NCCC(C)C)C(=O)N(Cc3cccc4ccccc34)C1=CCC(C)(C)C2
  -10% | ?
- COc1cc(/C=C/C(=O)NC2CCCCC2)cc(OC)c1OC
  -9% | -3%
- O=C(CNC(=O)c1ccc(Br)cc1)NC1=NCCS1
  -9% | -3%
- CC(Oc1cccc(Cl)c1)C(=O)Nc1ccc(N2CCOCC2)cc1N1CCOCC1 (stereo not given)
  -26% | -1%
- O=C(O)/C=C\C(=O)Nc1ccc(OCc2ccccc2)cc1
  i | -17%
- Cc1ccccc1CN1C(=O)c2ccccc2Sc2ccc(C(=O)NCCc3ccccc3)cc21
  -13% | -9%
- COc1cc(NC(=O)c2cc3ccccc3o2)c(OC)cc1Br
  . | 15%
- CC(C)C(c1nnnn1Cc1cccs1)N1CCN(c2ccccc2)CC1 (stereo not given)
  -4% | 4%
- O=C(Nc1ccc2c(c1)OCCO2)C(c1ccccc1F)n1c(=O)c(-c2cc3ccccc3[nH]2)nc2ccccc21 (stereo not given)
  ? | -26%
- O=C(NCc1cccnc1)c1cc(S(=O)(=O)N2CCOCC2)c(Cl)cc1Cl
  i | -6%
